ClpP mod – qHTS Assay for Activators of ClpP | ATP-dependent Clp protease proteolytic subunit (Bacillus subtilis (strain 168)), P80244 | purified B. subtilis ClpP, FRET peptide cleavage, 20 min | Potency, µM (titrated, usually from 57.5 µM), for the others: top-dose activity change, negative = active | actives 1.9% (n = 340,000) | AID 651965, 2013; active = well fitted falling curve with a large enough effect; inconclusive = small, poorly fitted or top-dose-only effect; inactive = no such curve, though single readings can be large or run the other way; note: potency is the fitted concentration of half-maximal effect; the source files actives as falling curves though it sought activators and does not explain the sign; nearly all actives have a fitted effect of over 65% in size; many hits overshoot -100%
Target sequence (P80244 whole entry, looked up): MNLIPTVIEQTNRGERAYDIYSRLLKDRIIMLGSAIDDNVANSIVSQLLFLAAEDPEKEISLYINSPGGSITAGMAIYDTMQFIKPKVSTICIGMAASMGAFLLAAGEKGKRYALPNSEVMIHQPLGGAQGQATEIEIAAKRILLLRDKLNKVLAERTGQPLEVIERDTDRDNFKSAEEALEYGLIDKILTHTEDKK
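Buffer: 100 mM Tris/HCl pH8, 100 mM KCl, 0.05% low protease BSA, 2.5% glycerol, 0.01% Tween-20. ClpP 10 microg/mL final; 20 min RT; delta FRET normalized to ADEP and DMSO controls.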
TRPML1 inh – qHTS for Inhibitors of the Human Mucolipin Transient Receptor Potential 1 (TRPML1); Mucolipin-1 (Homo sapiens), Q9GZU1; actives 0.02% (n = 390,000); activity change, negative = inhibition, % (concentration not given with the values); TRPML1-inducible cells, Ca2+ dye fluorescence, FDSS; hits give low values; inhibition of EC80 agonist-evoked calcium signal; in the data active means activity change below about -50%; inconclusive means about -30% to -50%; inactive means above about -30%;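 note: stimulus is agonist 54-4 at its EC80 concentration; % is set by controls: 0 for no effect and ±100 for the full control effect; compound concentration not given in the record; the text of the record puts the active cut at -80%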
Target sequence (Q9GZU1 whole entry, looked up): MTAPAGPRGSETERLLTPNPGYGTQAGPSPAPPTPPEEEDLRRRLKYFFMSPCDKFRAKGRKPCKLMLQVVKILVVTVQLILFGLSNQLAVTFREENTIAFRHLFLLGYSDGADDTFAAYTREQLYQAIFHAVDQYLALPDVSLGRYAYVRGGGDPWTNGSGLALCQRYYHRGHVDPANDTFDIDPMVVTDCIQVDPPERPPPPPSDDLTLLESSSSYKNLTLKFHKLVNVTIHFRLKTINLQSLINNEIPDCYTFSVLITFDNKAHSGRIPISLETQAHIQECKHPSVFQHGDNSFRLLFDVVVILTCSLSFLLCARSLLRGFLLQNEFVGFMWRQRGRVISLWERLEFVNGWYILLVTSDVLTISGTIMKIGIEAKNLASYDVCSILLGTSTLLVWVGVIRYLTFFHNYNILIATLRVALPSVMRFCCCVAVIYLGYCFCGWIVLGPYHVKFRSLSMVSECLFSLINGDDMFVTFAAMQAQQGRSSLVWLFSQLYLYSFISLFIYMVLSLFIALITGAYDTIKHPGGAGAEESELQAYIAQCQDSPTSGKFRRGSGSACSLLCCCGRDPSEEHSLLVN
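Calcium fluorescence in TRPML1-DL cells induced overnight with Tet: a 110 s read after compound pin addition, then a 110 s antagonist read after challenge with 54-4 at 4 uM final (EC80).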
TRPML1 agonist – qHTS for Agonists of the Human Mucolipin Transient Receptor Potential 1 (TRPML1); Mucolipin-1 (Homo sapiens), Q9GZU1; TRPML1-expressing cells, Ca2+ dye fluorescence, FDSS; host cell line not named in the record; reference of the full effect not given here; activation, % (concentration not given with the values); actives 0.12% (n = 410,000); AID 624414, 2012; in the data active = activation above about 50%; inconclusive = about 30% to 50%; inactive = below about 30%; note: 0% is about no effect; the text of the record puts the active cut at 80%
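Calcium fluorescence on an FDSS kinetic reader gave the read-out. Tet-induced TRPML1-DL cells were plated overnight, dye-loaded (Ca8 with quencher, 45-90 min, room temperature, dark), then read 110 s after compound addition, and again 110 s after 4uM final 54-4 (EC80).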
Sfp inh – qHTS Assay for Inhibitors of Bacillus subtilis Sfp phosphopantetheinyl transferase (PPTase) | Biochemical Sfp PPTase activity, qHTS | Potency, µM, inactives show max response, negative = inhibition, most hits filed as inhibitors | actives 3.5% (n = 310,000) | AID 1490, 2009; active = well fitted inhibition curve with a large enough effect; inconclusive = small, poorly fitted or top-dose-only effect, or another doubt; inactive = no such curve, though single readings can be large or run the other way;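 note: the enzyme is Sfp with the accession as filed and its product quenches rhodamine fluorescence; potency is the fitted concentration of half-maximal effect; 0% = enzyme reaction without inhibitor and -100% = no enzyme wells; top concentration of the series not given in the record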
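Step 1, compound plus 15 nM Sfp-PPTase, 15 min, room temperature. Step 2, add rhodamine-CoA (5 uM) and BHQ-2-YbbR (12.5 uM). Step 3, read 525/598 nm fluorescence at 0 and 30 min.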
Menin-MLL FL inh – qHTS Assay for Inhibitors Targeting the Menin-MLL Interaction in MLL Related Leukemias: Competition With Fluorescein Labeled MLL-derived Peptide; AID 1766, 2009; Fluorescence polarization, fluorescein-MLL peptide displacement from menin; 290,000 tested, under 10 active; FP activity change, % at 61.4 µM; inconclusive = falling polarisation curve, or a change in total fluorescence; inactive = total fluorescence flat and polarisation flat or rising; no compound was filed as active; the % refers to the polarisation; negative = inhibition;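 note: % of control where 0% means no effect; inhibitors lower the polarisation; unlabelled MLL peptide was the positive control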
PINK1 expr mod – A Quantitative High throughput Screen to Identify Chemical Modulators of PINK1 Expression | PINK1 immunofluorescence, high-content cytometry, 24 h | Potency, µM (doses to about 76.6 µM), for inactives: at the highest dose activation (PINK1 increase), hits mostly activators | actives 0.2% (n = 410,000) | AID 624263, 2012; active = well fitted activation curve with a large enough effect; inconclusive = small, poorly fitted or top-dose-only effect; inactive = flat fitted curve, though single readings scatter; cell line not stated here;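 note: potency is the fitted concentration of half-maximal effect; % of control where 0% means no effect; nearly all actives have a fitted effect of over 65% in size; a mitochondrial uncoupler was the plate control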
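PINK1 protein level read as immunofluorescence by microplate cytometer in a fixed, stained stable cell line after 24 h exposure to five compound concentrations, with CCCP as control.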
TRPV1 potentiator – HTS Assay for Compounds that Act as Potentiators of the Vanilloid Receptor 1. AID 540277, 2011. actives 0.02% (n = 320,000). TRPV1-expressing cells, Fluo-8 calcium influx, capsaicin EC20 potentiation; host cell line not named in the record; control for the full effect not named in the record. potentiation, % at 8.33 µM; active means potentiation above 80%; inconclusive means 30% to 80%; inactive means below 30%; note: 0% is about no effect
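TRPV1-expressing cells were cultured overnight at 35.5C and loaded with Fluo-8 calcium dye for 40 to 90 min at room temperature. After a 10 s baseline, compound was added and calcium influx was read kinetically for 3 min (ex 480/em 520 nm).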
Active calls of the source: *; ? = inconclusive; nt = not tested or not shown; [ ] = remark or other dose.

SMILES | ClpP mod | TRPML1 inh | TRPML1 agonist | Sfp inh | Menin-MLL FL inh | PINK1 expr mod | TRPV1 potentiator
Nc1nc(SCC(=O)NCCCN2CCOCC2)nc2sc3c(c12)CCC3 | -3.4% | -5 | 0.1 | 28µM* | -4.0 | 7.9%[38.3 µM] | 4
O=C(COc1ccccc1C(=O)O)NC1CCCc2ccccc21 (centres undefined) | -0.4% | 23 | 0.0 | 20% | -8.4 | 0.0% | -10
CCS(=O)(=O)c1ncc(N(Cc2ccc(F)cc2)Cc2ccco2)c(C(=O)Nc2cc(C)ccc2C)n1 | -4.0% | 13 | -0.3 | nt | nt | -1.5% | nt
CC1CCN(CCc2nc3cc(NC(=O)COc4ccccc4)ccc3n2C)CC1 | -5.4% | -1 | -0.2 | 4% | nt | 0.9% | ?
Cc1c(C)c2ccc(OCC(=O)N3CCN(C(=O)C4COc5ccccc5O4)CC3)cc2oc1=O (centres undefined) | 4.3% | -7 | -0.6 | 0% | nt | -1.3% | ?
O=C(N1CCOCC1)N1CCN(c2nc(-c3ccccc3)cs2)CC1 | 0.7% | -3 | -0.8 | ? | 2.2 | 5.8% | 5
COCCSc1ccccc1C(=O)Nc1ccc2c(c1)OCO2 | 0.4% | -19 | 1.7 | ? | 3.3 | 1.5% | 12
COc1ccc(/C=N/NC(=O)C2c3ccccc3Oc3ccccc32)c(OC)c1 | 0.2% | -3 | -0.3 | 19% | 2.6 | 9.0% | 16
COc1ccc(N2C(=O)C3CCCN3C2c2ccc(C)cc2)cc1Cl (centres undefined) | 3.0% | 16 | -0.9 | 12% | 0.7 | 2.0% | 13
CCc1nc2c(OCc3cccc(OC)c3)cccn2c1N(C)C(=O)c1ccccc1F | -0.7% | nt | -1.2 | nt | nt | 5.7% | nt
Cc1nn(Cc2ccc(Cl)cc2Cl)c(C)c1NC(=O)c1nc2n(n1)C(C(F)F)CC(C)N2 (centres undefined) | -2.3% | -9 | -0.7 | 7% | 3.7 | -1.8% | 3
CC(=O)c1ccc(N2CCN(C(=O)CCS(=O)(=O)c3ccc(C)cc3)CC2)cc1 | -5.8% | 8 | 1.4 | -2% | 0.9 | 1.2% | 8
Cc1cccc(C)c1NC(=S)N1CCC(c2ccccc2)C1 (centres undefined) | nt | 3 | 0.1 | 3% | -4.8 | 0.1% | 0
C[C@H]1CN([C@@H](C)CO)S(=O)(=O)c2ccc(Br)cc2O[C@@H]1CN(C)C(=O)Cc1cccnc1 | 0.1% | -4 | 0.1 | nt | nt | 1.0% | nt
CC(=O)c1cccc(NC(=S)NC(=O)c2ccccc2Cl)c1 | 1.0% | 8 | -0.6 | 7% | 2.4 | 2.7% | -9
COc1cccc(CNC(=O)c2nnn(CC(=O)Nc3ccc4c(c3)OCO4)c2N)c1 | -0.6% | -17 | 0.9 | 4% | 0.6 | 1.5% | -2
COc1c(/C=N/NC(=O)c2ccncc2)c(CCN(C)C(C)=O)cc2c1OCO2 | nt | -9 | -0.3 | 14% | 0.4 | -2.1% | 13
COc1cc(NC(=O)N2CCNC2=O)cc(C(=O)Nc2cccc(C(F)(F)F)c2)c1 | 3.3% | 8 | 1.3 | -11% | 7.1 | 12% | -16
CCOC(=O)CSc1nnc(-c2ccc(S(=O)(=O)N3CCC(C)CC3)cc2)o1 | 0.1% | -8 | -0.2 | 9% | -1.8 | 19%[38.3 µM] | 0
Nc1ccccc1N1CCOCC1 | -5.9% | -4 | -0.2 | 21% | -0.9 | 0.6% | 7
O=C(C[n+]1ccc2c(c1)nnn2-c1ccccc1)c1ccc(Cl)cc1 | -2.3% | 3 | -0.5 | 9% | -1.5 | 0.1% | 1
CCOC(=O)Cc1csc(NC(=O)c2cc3c(s2)CCCC3)n1 | -5.8% | -3 | 0.9 | -2% | 2.0 | 11%[38.3 µM] | -12
c1cncc(-c2nc(-c3ccc4c(c3)OCCO4)cs2)c1 | -2.5% | 31 | 1.4 | -7% | -3.9 | 1.2% | -6
CC1(C)C2CCC13CS(=O)(=O)NC3C2 (centres undefined) | 1.2% | -18 | 1.2 | 13% | -2.8 | -1.7% | -6
COc1cccc(CNC(=O)c2c[nH]n3c(=O)c(Cl)c(C)nc23)c1 | ? | -4 | -0.1 | -13% | -1.9 | 1.3% | 7
Cc1ccc(-n2c(O)c(/C=N/c3ncn[nH]3)c3ccccc3c2=O)cc1 | -9.5% | 10 | -0.4 | 14% | 7.6 | 10% | -7
Cc1cccc(N2CCN(S(=O)(=O)c3ccc(S(=O)(=O)N4CCCC4)cc3)CC2)c1C | 1.1% | -9 | -0.5 | 22% | 1.8 | -0.4% | -2
Cc1ccc(S(=O)(=O)Cc2sc3ccccc3[n+]2C)cc1 | -6.5% | 12 | 0.6 | -4% | 2.7 | -2.2%[38.3 µM] | -4
Cc1cc(C)n2nc(SCC(=O)N/N=C/c3cccc(Br)c3)nc2n1 | 0.5% | -7 | -0.8 | -12% | 2.5 | 4.7%[38.3 µM] | 13
C/C(=N\NC(=O)c1cccc(S(=O)(=O)N2CCCC2)c1)c1ccncc1 | 0.6% | 14 | -0.4 | nt | nt | -1.1% | -19
Fc1ccc(/C=C/c2nnc(-c3cccs3)o2)cc1 | nt | 8 | 0.2 | 11% | -1.5 | 0.5% | -15
O=c1[nH]c2cc3c(cc2cc1CN(Cc1ccc2c(c1)OCO2)Cc1nnnn1CC1CCCO1)OCO3 (centres undefined) | 16µM* | 1 | 0.4 | -2% | -0.9 | -2.6%[38.3 µM] | -17
O=S(=O)(Nc1ccccc1Cl)c1ccc(NS(=O)(=O)c2cccs2)cc1 | 0.9% | -12 | -1.8 | 13% | -7.9 | 2.8% | 3
Cc1cccc(S(=O)(=O)Nc2ccncc2)c1 | nt | 14 | 1.0 | 18% | ? | 0.5% | -7
Cc1ccc(C)c(OCCC(=O)OCc2csc(CC(=O)Nc3ccccc3C)n2)c1 | 0.6% | 10 | 0.5 | nt | nt | 4.3% | -6
CC(COc1ccccc1)OC(=O)Nc1ccccc1 (centres undefined) | 0.2% | 18 | 1.2 | nt | nt | -1.1% | nt
CC(C)c1cc(C(=O)Nc2ccc3c(c2)OCO3)no1 | -2.8% | 6 | -1.1 | 12% | 1.5 | 3.1% | -8
COc1ccc(CC(=O)Nc2oc(-c3ccccc3)c(-c3ccccc3)c2C#N)cc1OC | 32µM* | 18 | 3.4 | -10% | 2.7 | 8.5% | -3
COC(=O)c1c(NC(=O)COc2cc(C)ccc2C(C)C)sc2c1CCC(C)C2 (centres undefined) | -1.2% | -6 | 1.0 | nt | nt | 1.3% | nt
O=C(CN1C(=O)c2ccccc2C1=O)OCC(=O)N1CCc2ccccc2C1 | 1.0% | 15 | 0.6 | -8% | 3.6 | 0.1% | 13
COC(=O)[C@]12CCCCC=C1N(CCC1=CCCCC1)C(=O)[C@H](CC(=O)NCCCN1CCCC1=O)C2 | -0.8% | nt | -0.3 | nt | nt | -0.5% | nt
COc1ccc(N/C=C(\[N+](=O)[O-])S(=O)(=O)c2ccccc2)cc1 | nt | 16 | -0.6 | 9% | ? | 7.0% | ?
CC(C)OC(=O)CSc1nc(C(C)C)nc2ccccc12 | 1.7% | -5 | 1.4 | 3% | 0.3 | 2.1% | -11
CSc1nc(Cl)cc(Nc2ccc(O)cc2)n1 | nt | 8 | -0.3 | 3% | -8.4 | 2.5% | 8
Cc1sc2ncn(CC(=O)NCC(=O)N(C)Cc3ccccc3)c(=O)c2c1C | 0.1% | 2 | 1.0 | 26% | 3.4 | ? | 1
Nc1cc(=O)[nH]c(SCc2cccc(Cl)c2)n1 | 0.5% | 4 | -0.2 | 1% | -5.2 | -0.2% | 6
COc1ccc(NC(C)=O)cc1CNC(=O)COc1ccccc1C(=O)Nc1cccc(C)c1C | nt | -1 | -0.7 | 10% | -0.5 | 1.2% | 5
CCOC(=O)c1sc(NC(=O)C2CC(=O)N(c3ccc(C)cc3)C2)nc1C (centres undefined) | nt | -4 | 1.4 | -1% | -1.0 | 0.0% | -9
CCOc1ccc(NC(=O)CN2CCN(c3ccc(F)cc3)CC2)cc1 | nt | -4 | 1.1 | 11% | -1.0 | 0.3% | 24
Cc1c(C)n(Cc2ccccc2)c2ncnc(Cl)c12 | -9.1% | 22 | 1.6 | 0% | 18 | -2.4% | 24
CN(CC(=O)NC(=O)NCc1ccccc1)CC(=O)Nc1ccc(Cl)c(C(F)(F)F)c1 | nt | 19 | 5.2 | nt | nt | 2.8% | 6
Cc1sc2ncn(CC(=O)NCCCC(=O)N3CCN(c4ncccn4)CC3)c(=O)c2c1C | -16% | 20 | 0.7 | 9% | 5.4 | -1.4% | 27
C=CCn1c(SCc2c(C)noc2C)nc2sc3c(c2c1=O)CCCC3 | -5.0% | 4 | 1.6 | ? | -1.3 | ? | -13
CSc1ccccc1NC(=S)N/N=C/c1cccn1Cc1cccc(C)c1 | nt | -4 | -0.7 | 12% | -1.1 | -0.2% | 11
CCCNC(=O)C1CCN(c2ccc(S(=O)(=O)N3CCOCC3)cc2Cl)CC1 | 3.4% | -1 | 0.5 | 11% | -1.7 | nt | -8
COc1ccc(Nc2cc(C(=O)NC3CCCC3)c3ccccc3n2)cc1 | 38% | 27 | 5.4 | nt | nt | 3.3% | nt
CCOC(=O)c1sc2nc(C)[nH]c(=S)c2c1C | nt | -5 | -0.3 | 20% | 6.4 | -1.3% | 2
